High-throughput results: PubChem, Broad Institute
Beta apoptosis = inhibitors of cytokine-induced beta cell apoptosis, primary screen, luminescence. INS-1E cytokine-induced death, ATP luminescence, 48 h; percent of positive-control rescue, neutral wells zero. protection from apoptosis, % (test concentration not listed). 0.8% of 300,000 active. AID 435005, 2010;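 active = all replicates at 75% or more, or half of them and the mean; inconclusive = half reach 75% but not the mean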;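 also: 0% = cytokine-treated negative control wells and 100% = positive control rescue; higher means more ATP so stronger rescue from cytokine killing; wells of about 40 µL received 100 nL stock; the first replicate is given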
RanGTP-Imp inh = inhibitors of RanGTP-importin-beta interaction, primary screen, biochemical, FRET, CFP-Ran, YFP-importin-beta, homogeneous. 1.1% of 300,000 active. cell-free CFP-Ran/YFP-importin-beta FRET ratio. inhibition, % (test concentration not listed). Ran GTPase (GTP-bound) - importin-beta complex;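 active = most replicates above 15%; inconclusive = exactly half above 15%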;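 also: 0% = DMSO wells and 100% = Ran loaded with GDP instead of GTP; wells of about 40 µL received 100 nL stock; the first replicate is given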
T cruzi inh = inhibitors of intracellular T. cruzi growth, primary screen, luminescence, NIH3T3 host cells. T. cruzi beta-gal in NIH3T3, 90 h. 1.4% of 300,000 active. inhibition, % (concentration not given with the values);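 active = mean inhibition across valid replicates above about 55%, limit read from the data; inconclusive = mean below that limit but half or more replicates reach it; inactive = mean below it, under half of replicates reach it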;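 also: signal also drops with host cell toxicity which is not excluded here; 0% = plate median of DMSO wells and 100% = zero luminescence signal; higher percent means less beta-gal luminescence so fewer parasites; stock transfer was 50 nL into about 50 µL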
AF4-AF9 inh = inhibitors of AF4 peptide binding to AF9, primary screen, biochemical, AlphaScreen, biotin-AF4 peptide, FLAG-AF9, single point; 0.47% of 350,000 active; inhibition, % at 10 µM; AID 651704, 2012;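 active = every replicate reaching a set inhibition limit, whatever the replicate mean, cut at about 25% in these data; inconclusive = mean inhibition reaches that limit but some replicates miss it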;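 also: 0% = plate neutral control median and 100% = total signal loss; the record names both 10 and 1 µM as test concentration; the first replicate is given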
Target sequence (P42568 whole entry, looked up): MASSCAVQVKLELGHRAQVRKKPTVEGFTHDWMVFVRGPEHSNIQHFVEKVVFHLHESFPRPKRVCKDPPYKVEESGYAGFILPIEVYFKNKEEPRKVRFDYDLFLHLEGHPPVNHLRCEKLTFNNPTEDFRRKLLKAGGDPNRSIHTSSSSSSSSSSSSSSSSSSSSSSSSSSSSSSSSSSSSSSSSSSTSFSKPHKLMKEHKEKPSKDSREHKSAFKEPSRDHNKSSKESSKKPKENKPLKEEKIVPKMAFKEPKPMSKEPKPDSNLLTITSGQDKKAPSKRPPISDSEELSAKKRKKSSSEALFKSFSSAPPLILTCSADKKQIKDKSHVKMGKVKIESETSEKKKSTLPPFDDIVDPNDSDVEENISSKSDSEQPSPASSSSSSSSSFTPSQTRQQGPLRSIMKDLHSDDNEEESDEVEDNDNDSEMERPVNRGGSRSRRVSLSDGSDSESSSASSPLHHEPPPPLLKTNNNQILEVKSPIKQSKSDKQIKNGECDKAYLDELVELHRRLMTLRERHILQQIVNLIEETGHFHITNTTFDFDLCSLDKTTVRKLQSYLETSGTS
rRNA inh HTS = reduced GFP signal of wild-type E. coli, primary screen, bacterial rRNA inhibitor project, GFP/RFP fluorescence, OD600, single point. E. coli WT GFP vs humanized-ribosome RFP mutants, 24 h; active compounds read low; DMSO median 0, no signal -100. GFP signal change (wild-type ribosome), % (no concentration beside the values). 1.6% of 350,000 active;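 active = significant combined selectivity score with lowered wild-type GFP, culture density cut under 30%, mutant RFP and density less affected; inactive = any of these conditions unmet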; also: one replicate is shown; some compounds called inactive have numbers as strong as hits
ALR H2O2 inh = inhibitors of human ALR sulfhydryl oxidase, primary screen, biochemical, H2O2 detection, HRP-luminol luminescence, single point. inhibition, % (concentration not given with the values). 3.8% of 290,000 active. FAD-linked sulfhydryl oxidase ALR (Homo sapiens), P55789. purified ALR, DTT oxidation;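 active = mean and each replicate at 75% or more; inconclusive = only one of the two met; inactive = neither met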;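 also: stock transfer was 7.5 nL into about 7.5 µL; 0% = neutral wells and 100% = wells with inactivated enzyme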
Target sequence (P55789 whole entry, looked up): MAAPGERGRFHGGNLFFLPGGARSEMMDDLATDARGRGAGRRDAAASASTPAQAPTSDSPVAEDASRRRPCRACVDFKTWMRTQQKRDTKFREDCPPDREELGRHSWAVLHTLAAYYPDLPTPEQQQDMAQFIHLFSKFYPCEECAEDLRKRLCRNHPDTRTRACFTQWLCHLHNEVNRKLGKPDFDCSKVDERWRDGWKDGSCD
Calb FLC = C. albicans growth inhibition with fluconazole, primary screen, CaCi-2 strain, Alamar Blue fluorescence; 0.57% of 300,000 active; C. albicans CaCi-2 (fluconazole-resistant clinical isolate) + fluconazole, 48 h; growth inhibition, % (concentration not given with the values);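 active = most replicates above 75%; inconclusive = exactly half above 75%; inactive = most below 75%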;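 also: all wells also contain fluconazole at 8 µg/ml as a sub-toxic cotreatment; 0% = median of DMSO wells and 100% = median of geldanamycin control wells; wells of about 8 µL received 7.5 nL stock; the first replicate is given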
FGF22 binding = binders of human FGF22 protein, primary screen, FGF22 synaptogenesis inhibitor project, biophysical, thermal shift, single point; 1.5% of 340,000 active; recombinant FGF22 thermal shift, SYPRO orange fluorescence; percent of sucrose octasulfate shift, DMSO zero; calls only at 9.99 µM; AID 651658, 2012; Fibroblast growth factor 22 (Homo sapiens), Q9HCT0;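 active = melting point raised past a set limit in the mean and every replicate; inconclusive = no clear call; three in four hits are not shown here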
Target sequence (Q9HCT0 whole entry, looked up): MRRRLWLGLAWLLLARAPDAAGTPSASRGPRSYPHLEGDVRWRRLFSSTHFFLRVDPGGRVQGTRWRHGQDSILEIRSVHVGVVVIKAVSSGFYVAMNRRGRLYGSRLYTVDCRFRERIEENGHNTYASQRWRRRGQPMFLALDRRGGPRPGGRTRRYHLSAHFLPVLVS
rRNA inh HTS OD600 = also measured in rRNA inh HTS; calls as there; OD600 change, %; measured here: OD600 growth;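 optical density of the mix in the first replicate; 0 = DMSO median and -100 = no signal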
rRNA inh HTS RFP = further read-out of rRNA inh HTS, marked with its call; RFP signal change, %; measured here: RFP humanized mutant strains;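 first replicate; 0 = DMSO median and -100 = no signal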
Starred values were filed as active, the others as inactive; i = inactive; ? = inconclusive; / = no result given. This is a subset; count on the stated rates, not on these rows.

SMILES	Beta apoptosis	RanGTP-Imp inh	T cruzi inh	AF4-AF9 inh	rRNA inh HTS	rRNA inh HTS OD600	rRNA inh HTS RFP	ALR H2O2 inh	Calb FLC	FGF22 binding
Cc1cccc(NC(=O)Cc2ccc(NC3=NC4CS(=O)(=O)CC4S3)cc2)c1 (stereo not drawn)	-4	4.8	7	-11	3	9	-0.8	-5	-3	i
COc1ccccc1N1CCN(C(=O)C(C)NC(=O)c2cccc([N+](=O)[O-])c2)CC1 (stereo not drawn)	-1	2.1	1	-1.4	15	18	5.2	/	-1	i
Cc1cc(C)cc(N(CCC(=O)O)S(=O)(=O)c2ccc(Cl)cc2)c1	5	6.9	-2	1.3	-9	-4	6.2	/	0	i
O=C(COC(=O)c1ccc([N+](=O)[O-])o1)NCc1ccc2c(c1)OCO2	-1	/	/	-2.8	0	6	-4.4	/	/	i
O=C(Nc1ccc(F)cc1)N1CCN(c2ccc3nnc(-c4ccc(F)cc4)n3n2)CC1	10	-0.7	11	2.8	-4	1	5.2	67	11	i
NS(=O)(=O)c1ccc(CCNC(=S)NC2CCCC2)cc1	-7	3.1	-7	1.2	5	19	1.3	-1	-16	i
C=CCSc1nnc(NC(=O)C2=COCCO2)s1	-8	-0.1	-8	-1.1	-3	-3	0.8	3	-5	i
O=C(Nc1ccc(S(=O)(=O)N2CCOCC2)cc1)c1ccc(CN2CCc3ccccc3C2)cc1	123*	-0.6	22	/	/	/	/	-3	-9	/
Cc1ccc2[nH]c(=O)c(CN(CCCN(C)C)C(=O)Nc3cccc(Cl)c3)cc2c1	-4	2.2	26	-2.6	-43	-48	19	-11	-11	i
COc1cc(/C=N/NC(=S)NCCN2CCOCC2)cc(OC)c1O	1	?	1	-4.3	7	9	7.3	99*	-8	i
COC(=O)c1cc(COC(=O)c2ccc3ccccc3n2)oc1C	2	-1.9	-6	/	/	/	/	/	0	/
CCOc1cccc(C(=O)NC(=S)Nc2ccc3c(c2)OCCO3)c1	-3	0.5	-1	-0.9	-15	-20	-6.1	-4	38	i
O=C(CSc1ncn[nH]1)NCc1ccccc1Cl	0	4.7	8	-1.6	2	11	-2.7	-3	0	i
O=C1NC(=O)/C(=C\c2ccc(Oc3cnccn3)cc2)S1	12	-1.1	11	/	/	/	/	-5	45	/
Brc1ccc(OCc2nnnn2-c2ccccc2)cc1	9	-2.0	4	-4.2	-27	-28	-7.9	0	4	i
COc1ccc(OC)c(NC(=O)CN2CCc3ccccc3C2)c1	-10	1.6	9	2.9	-2	-18	2.0	-4	4	i
Cc1ccc(NC(=O)c2ccc(OCc3c(C)noc3C)cc2)cc1	1	-3.2	0	22	10	10	-0.2	4	-3	i
O=C(Cn1nc2sc3ccccc3n2c(=O)c1=O)c1cccs1	-2	0.3	-3	/	21	13	1.1	-1	3	i
C=CCN1c2ccccc2[C@]23C[C@@H](C(=O)OC)N(C(=O)c4ccco4)C2=NC(C(=O)OC)=C(C(=O)OC)[C@H]13	-8	-5.3	-14	9.3	7	10	-3.0	2	5	i
CCOC(=O)N1CCN(C(=O)C(CC)c2ccccc2)CC1 (stereo not drawn)	0	-0.9	-10	/	/	/	/	4	?	/

Molecules listed so far that contain four or more nitrogen atoms (6):
SMILES	Beta apoptosis	RanGTP-Imp inh	T cruzi inh	AF4-AF9 inh	rRNA inh HTS	rRNA inh HTS OD600	rRNA inh HTS RFP	ALR H2O2 inh	Calb FLC	FGF22 binding
COc1ccccc1N1CCN(C(=O)C(C)NC(=O)c2cccc([N+](=O)[O-])c2)CC1 (stereo not drawn)	-1	2.1	1	-1.4	15	18	5.2	/	-1	i
O=C(Nc1ccc(F)cc1)N1CCN(c2ccc3nnc(-c4ccc(F)cc4)n3n2)CC1	10	-0.7	11	2.8	-4	1	5.2	67	11	i
Cc1ccc2[nH]c(=O)c(CN(CCCN(C)C)C(=O)Nc3cccc(Cl)c3)cc2c1	-4	2.2	26	-2.6	-43	-48	19	-11	-11	i
COc1cc(/C=N/NC(=S)NCCN2CCOCC2)cc(OC)c1O	1	?	1	-4.3	7	9	7.3	99*	-8	i
O=C(CSc1ncn[nH]1)NCc1ccccc1Cl	0	4.7	8	-1.6	2	11	-2.7	-3	0	i
Brc1ccc(OCc2nnnn2-c2ccccc2)cc1	9	-2.0	4	-4.2	-27	-28	-7.9	0	4	i

(more compounds)
SMILES	Beta apoptosis	RanGTP-Imp inh	T cruzi inh	AF4-AF9 inh	rRNA inh HTS	rRNA inh HTS OD600	rRNA inh HTS RFP	ALR H2O2 inh	Calb FLC	FGF22 binding
Cc1cc(N2CCN(c3ccccc3)CC2)n2ncnc2n1	-2	3.4	-11	-11	1	0	-0.3	98*	22	i
CCOC(=O)C1=C(C)N(CCO)C(=O)NC1c1cccc(O)c1 (stereo not drawn)	-2	1.5	/	/	/	/	/	-7	-5	/
O=C(N/N=C/c1ccccc1[N+](=O)[O-])c1cccs1	/	5.6	6	-1.3	-1	1	-3.8	-4	-9	i
COc1ccc(C(CNC(=O)c2cc(=O)[nH]c3ccccc23)N2CCCC2)cc1 (stereo not drawn)	-1	1.2	1	/	/	/	/	-7	-4	/
O=c1nc2n(c3cccc(Cl)c13)CCCCC2	-10	-6.5	-5	1.9	19	10	-1.0	0	-7	i
CCCCNC(=O)Cc1coc2ccc3ccccc3c12	-10	2.1	-4	/	/	/	/	/	-36	/
CCn1c(NC(=O)/C=C/c2ccc(F)cc2)nc2ccccc21	19	5.7	11	18	-43	-53	-7.3	/	-26	i
CCCCCOc1ccc(C(=O)CCC(=O)N2CCCC2)cc1	2	5.6	-3	-0.2	-1	-19	-2.0	-1	12	i
Cc1ccc(-c2nc(CS(=O)(=O)CC(=O)Nc3cc(F)ccc3F)c(C)o2)cc1	5	-1.8	2	4.6	10	-14	-4.0	-5	-2	i
CCOC(=O)/C(=C/C1=CC(=C/N(C)C)/C(=O)O1)C(C)=O	6	-44	9	-2.2	6	-11	-1.2	-10	-4	i
O=C(CN1CCN(Cc2ccccc2Cl)C1=O)NCC1CCCO1 (stereo not drawn)	-6	1.2	-12	-7.1	5	13	-2.0	/	0	i
CCS(=O)(=O)c1ccc(O)c(NC(=O)CC2(CC(=O)O)CCCC2)c1	-5	-1.3	-11	-2.7	/	/	/	-7	-6	i
Cc1c(CCC(=O)O)c(=O)oc2cc3occ(C(C)(C)C)c3cc12	3	-4.5	4	4.4	-5	-11	0.9	-10	0	i
COC(=O)c1cc(NC(=O)c2cccc(F)c2)cc(C(=O)OC)c1	5	-4.8	-1	-1.4	4	7	-12	24	-7	i
CC(=O)N1c2ccc(S(=O)(=O)NCCC(=O)NC3CCCCCC3)cc2CC1C (stereo not drawn)	-3	-1.5	-2	-2.8	9	3	3.2	-6	5	i
Cc1cc(NC(=O)CCc2ccc(S(=O)(=O)N3CCOCC3)cc2)n(-c2ccccc2)n1	10	7.9	-16	/	/	/	/	-9	-4	/
CC(C)NC[C@@H](O)c1ccc(O)c(O)c1	-1	12	0	-5.9	/	/	/	16	/	i
Cc1cc(-c2ccc(S(=O)(=O)N(C)c3ccc(C)c(C)c3)s2)on1	15	0.0	-2	3.4	-4	-11	0.0	-9	12	i
O=[N+]([O-])c1cccc(-c2nc3ccc([N+](=O)[O-])cc3[nH]2)c1	39	2.3	23	2.6	9	6	0.2	-6	51	i
COc1cccc(OCCCOc2ccc([N+](=O)[O-])cc2Cl)c1	-2	-0.4	7	/	/	/	/	-2	-6	/
CC1CCC(C(C)C)C(OCC(O)CN2CCCC(C)C2)C1 (stereo not drawn)	4	4.2	30	0.0	-22*	-15*	-2.9*	-41	-41	i
CCCCN(C)C(=O)Cn1ncc2c3ccccc3n(CCC)c2c1=O	1	-2.2	0	-4.2	-11	-12	1.5	-4	5	i
CCOc1ccc(NC(=O)N(C2CCCCC2)C(C)c2cccnc2)cc1 (stereo not drawn)	2	0.1	19	-2.0	13	12	0.6	-9	-6	i
CCOc1cccc(-c2c(C(=O)N/N=C/c3ccc(C)s3)nnn2-c2nonc2N)c1	/	-0.3	-2	-5.9	1	5	4.4	5	2	i
COCCNC(=O)CSc1ccc(-c2nc3ccccc3[nH]2)cn1	/	-1.7	-10	-19	0	15	-1.4	-1	1	i
O=C(CN1CCCC1c1cccs1)Nc1cccc(S(=O)(=O)N2CCCC2)c1 (stereo not drawn)	5	/	/	3.0	-8	-17	7.6	/	/	i
CC(=O)NC(CCS(C)(=O)=O)C(=O)Nc1ccccc1Cl (stereo not drawn)	-12	4.1	-3	/	/	/	/	-2	-8	/
Nn1c(SCC(=O)Nc2ccccc2F)nc2ccccc2c1=O	-2	-1.9	22	/	/	/	/	/	-3	/
Cc1cccc(C(=O)NCC(=O)OCC(=O)NC2CCCCC2)c1	-3	/	/	-3.7	20	9	11	-8	/	i
Cc1cc([N+](=O)[O-])nn1Cc1c(F)c(F)c(F)c(F)c1F	3	-0.4	8	/	/	/	/	-8	10	/
O=C(O)C1CC=CCC1C(=O)NCCc1csc(-c2ccccc2)n1 (stereo not drawn)	-4	-1.5	-9	-10	-6	-1	-4.0	-7	4	i
Cc1ccccc1C(=O)N[C@H](C(=O)OCC(=O)c1ccc[nH]1)C(C)C	-4	2.2	-13	-0.1	17	10	3.4	-13	-9	i
COC(=O)C1=CN(Cc2ccc(OC)c(OC)c2)C=C(C(=O)OC)C1c1cccc(O)c1	-2	19*	58*	-22	-1	-6	5.9	-3	4	i
COc1ccc2c(c1)c(CC(=O)OC(C)C(=O)N(C)C)c(C)n2C(=O)c1ccc(Cl)cc1 (stereo not drawn)	5	0.4	7	6.3	-3	-13	10	-17	7	i
CCCN1C(=O)CC(c2ccco2)Sc2ccccc21 (stereo not drawn)	-8	-0.2	1	-1.2	-37	-33	-7.3	2	23	i
COc1cc(OC)c2c(OC)cccc2n1	-9	-0.6	-21	5.2	5	-5	1.6	-1	-6	i
O=C(Nc1ncc(Cl)cn1)c1cccs1	1	3.4	-27	/	/	/	/	-3	12	/
CCOC(=O)CC1(NC(=O)c2cc(COc3cncc(Cl)c3)on2)CCCCC1	/	-0.1	9	-1.9	-7	-21	2.7	-14	-13	i
COc1ccc(OC)c(C2C(C#N)=C(N)Oc3cc(C)n(Cc4ccccn4)c(=O)c32)c1 (stereo not drawn)	0	1.4	-5	/	/	/	/	-2	-5	/
